# Screening data as filed in PubChem.
# Bead autofluor = compound fluorescence in toxin protease inhibitor counterscreen | fluorescence intensity (concentration not given with the values) | compound autofluorescence counterscreen, microsphere flow cytometry; hits give high values | 360,000 tested, 3.1% active;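 active means at least 3 SD above the mean of all compounds, about 16000 in these data; inconclusive means too few beads counted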;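 further: 100 nL of 1 mM stock went into each well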
# RN4220 kill = S. aureus RN4220 growth inhibition; 330,000 tested, 0.33% active; AID 1259311; inhibition, % (concentration not given with the values); OD600, 16 h;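 active means z-score of -3 or lower and OD600 up to 0.18 on both plates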;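 further: plate controls were untreated cells for no effect and reference antibiotic for full effect; stock transfer was 100 nL into about 80 µL; one replicate is shown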
# Mtb hypoxia rep = reduces hypoxia-regulated biosensor signal in M. tuberculosis; fluorescence inhibition, % (no concentration beside the values); 300,000 tested, 0.1% active; M. tuberculosis hypoxia-regulated fluorescent reporter, fluorescence;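 active means 35 to 45% if threefold the growth effect, above 45% if 1.5-fold the growth effect; inactive means the rest, general growth blockers included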;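 further: wells of about 50 µL received 100 nL stock; 0% = vehicle wells and 100% = reference inhibitor wells; whole bacteria with a GFP reporter of the hypoxia response; strong numbers were not always called active; many hits fall short of the cut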
# PrP UTR inh = suppresses PrP 5' UTR mRNA reporter expression; 340,000 tested, 0.35% active; cell-based PrP 5' UTR mRNA reporter, plate reader; inhibition, % (concentration not given with the values); AID 488862;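 active means every replicate at 50% or more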;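 further: 0 = median of the neutral control wells; tested in H4 reporter cells; numbers are from one replicate; inactives centre near -14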
# Sa ugtP lethal = kills S. aureus RN4220 lacking UgtP | S. aureus RN4220 ugtP deletion, OD600 growth, 16 h; some inactives read as strong as hits | 330,000 tested, 0.54% active | growth inhibition, % (no concentration beside the values);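 active means z-score under -3 and OD600 up to 0.15 on both plates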;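 further: plate controls were untreated wells for no effect and antibiotic for full effect; wells of about 80 µL received 100 nL stock; the first replicate is given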
# BJeLR viability = BJeLR cell viability loss; 300,000 tested, 0.17% active; BJeLR (HRASV12) viability, CellTiter-Glo ATP luminescence, 48 h; reference of the scale not given here; inhibition, % (no concentration beside the values);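 active means replicate mean above 50%; inconclusive means above 50% but judged a plate artefact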;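 further: 50 nL library stock added to about 25 µL; numbers are from one replicate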
# Mtb hypoxia rep growth = also measured in Mtb hypoxia rep; calls as there; growth inhibition, %; measured here: M. tuberculosis growth (absorbance);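 0% = vehicle and 100% = reference antibiotic; read after six days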
# Starred values were filed as active, the others as inactive; ? = inconclusive; · = no result given. The order is random (roughly 4% active in at least one column).
SMILES,Bead autofluor,RN4220 kill,Mtb hypoxia rep,Mtb hypoxia rep growth,PrP UTR inh,Sa ugtP lethal,BJeLR viability
Cc1ccc(NC(=O)c2cc(-c3ccc(F)cc3)on2)cc1C,3945,2.9,8.1,1.1,-19.6,3.1,1.3
COc1cc(/C=C/CO)cc(OC)c1O[C@@H]1O[C@H](CO)[C@@H](O)[C@H](O)[C@H]1O,3271,·,·,·,-15.5,·,-5.0
COc1ccc(C2=CN3CCCCC3CC2=O)cc1OC (stereo not given),4017,8.3,8.9,2.6,-19.0,13.5,·
Cc1ccc(-c2sc(C(=O)NN)c(C)c2C#N)cc1,6206,14.1,-11.3,0.7,16.0,-7.8,2.2
Cc1ccc(S(=O)(=O)NCCC(=O)NC2CCCCC2C)cc1 (stereo not given),7316,6.6,2.9,4.8,-26.2,10.0,·
CCCCC/S(CC1CC1(Cl)Cl)=N\S(=O)(=O)c1ccc(C)cc1 (stereo not given),2028,2.7,4.4,6.5,-4.2,0.9,8.0
CCC(=O)NC(Nc1ccccn1)(C(=O)OC)C(F)(F)F (stereo not given),2158,8.1,3.2,10.1,-3.6,11.6,12.4
O=c1cc(-c2ccccc2)n(S(=O)(=O)c2ccc3ccccc3c2)o1,·,-1.4,9.4,7.6,-10.7,7.4,-1.2
Cc1[nH]c2ccccc2c1C(=O)CSC(=S)N1CCCCC1,7888,5.1,4.6,7.9,-93.4,-27.6,-0.4
Cc1ccccc1NC(=O)CN(c1ccc(F)cc1)S(C)(=O)=O,3419,-1.4,·,·,-9.0,10.5,-4.9
C=C(C)CNC(=S)NN=C1CCCCc2ccccc21,·,7.4,11.1,4.6,·,50.3,·
CC(=O)Nc1ccc(N=Cc2c(O)c3ccccc3oc2=O)cc1,3076,0.3,4.7,-3.5,-3.1,2.1,12.4
CN1CC[n+]2c(CN3C(=O)c4ccccc4C3=O)csc21,2272,9.7,·,·,-24.7,16.8,9.5
CCS(=O)(=O)Nc1ccccc1C(N)=O,4301,1.4,16.7,9.8,-10.1,9.1,-0.8
C=C(C)C1Cc2c(C)nn(-c3nc(C)cc(C)n3)c2C1 (stereo not given),3179,-19.0,8.6,10.8,-1.8,-2.8,-1.7
C/C(=N\NC(=O)C(C)Sc1ccccc1)C(C)(C)C (stereo not given),3429,·,·,·,-11.6,·,6.0
CCOP(=O)(OCC)C(O)c1ccc(OC)cc1OC (stereo not given),2051,1.3,1.0,10.9,-29.3,0.2,15.5
COc1cccc(C=NNC(=O)C(=O)NN=Cc2cccc(OC)c2O)c1O,·,32.5,5.1,-18.0,·,1.9,·
COc1cccc(-c2nc(-c3ccccn3)no2)c1OC,6355,-0.5,·,·,-72.9,-0.3,1.3
Cc1ccc(S(=O)(=O)N(C)CCCC(=O)NC(C)(C)C)cc1,2825,6.2,-1.5,-0.5,-37.9,13.0,-0.8
S=C(Nc1cc(Cl)cc(Cl)c1)N1CCCC1,4205,2.8,9.7,-7.9,-3.5,4.0,-1.0
O=C(NCc1nnnn1-c1ccc(F)c(F)c1)c1ccc(S(=O)(=O)N2CCOCC2)cc1,5608,1.7,1.9,9.3,-27.3,1.4,5.2
Cc1cc(C)c2nc(SCC(=O)Nc3cc(C)on3)c(C#N)cc2c1,5459,-2.1,1.0,-7.3,3.5,11.7,-9.4
CCN(CC(=O)Nc1c(F)cccc1F)C(=O)CCCc1cccs1,6224,3.5,4.1,2.9,-8.9,5.7,·
COc1cc(C(=O)NNC(=S)Nc2ccc(S(N)(=O)=O)cc2)cc(OC)c1OC,4432,7.8,0.4,0.8,-10.4,-3.0,-4.0

# Carrying on:
SMILES,Bead autofluor,RN4220 kill,Mtb hypoxia rep,Mtb hypoxia rep growth,PrP UTR inh,Sa ugtP lethal,BJeLR viability
Cn1c(=O)c2c(nc(SCCN3CCOCC3)n2Cc2ccc(F)cc2)n(C)c1=O,10435,8.9,13.7,10.2,-3.6,-3.8,-6.7
Cc1ccc2c(=O)cc(C(=O)NCc3ccccc3)oc2c1C,3813,6.9,18.2,1.1,4.9,15.8,-9.0
O=C(CCc1nc(-c2ccccc2F)no1)NC1CCCCC1,9132,0.4,3.1,2.2,-23.2,6.3,14.1
Cc1ccncc1C(N)=O,5343,3.1,7.8,19.6,-0.2,11.0,-9.2
CC(C)n1cc(/C=C2/SC(=O)N(CC(=O)Nc3ccc4c(c3)OCO4)C2=O)c2ccccc21,9917,5.1,17.1,12.2,-19.9,-6.2,1.5
COc1cccc(CN(C)C(=O)CN2C(=O)NC(c3ccccc3)(c3ccccc3)C2=O)c1OC,3083,2.9,-1.6,2.0,-5.6,-2.9,·
CCN(CC(=O)NCc1ccc(Cl)cc1)C(=O)CSc1cc(C)ccc1C,5570,5.7,13.7,0.1,-10.3,7.6,12.5
CC(=O)Nc1nc(C)c(-c2csc(Nc3cccc([N+](=O)[O-])c3)n2)s1,9104,0.0,5.5,-0.3,14.7,25.7,-1.1
C/C(=N\Nc1cc(-c2ccccc2)nc(-c2ccccc2)n1)c1ccc(O)c(C)c1,10917,·,·,·,-11.2,·,-1.3
COc1ccc(CNC(=O)CN(C(=O)CCC(=O)Nc2ccccn2)c2ccccc2OC)cc1,2168,1.4,·,·,-5.7,-4.4,-13.8
COCCN(Cc1ccco1)C(=O)C1CCCN(c2ncnc3c2nc2n3CCCCC2)C1 (stereo not given),6276,3.8,1.0,3.4,-11.2,4.0,3.1
Cc1c(C)c2ccc(OCC(=O)N3CCN(c4ccc(F)cc4)CC3)c(C)c2oc1=O,5741,2.2,4.0,7.1,-23.6,6.5,-2.9
CC(C)c1ccc(CN2CC(C(=O)Nc3ccccc3)CC2=O)cc1 (stereo not given),2077,4.0,10.9,2.7,-22.8,5.1,-6.5
COc1cc(-c2c(-c3cc(OC)c(OC)c(OC)c3)noc2C)ccc1F,·,6.5,4.1,1.7,·,8.2,31.9
CC(=O)[C@@]1(O)CCC2C3CC(C)C4=CC(=O)CC[C@]4(C)C3CC[C@@]21C (stereo not given in full),·,5.4,3.2,1.2,·,-3.1,·
COc1ccccc1NC(=O)CC1CCCC1,3824,3.3,3.3,8.6,1.6,2.8,2.5
Cn1c(=O)c2c(nc(NCc3ccco3)n2CC(O)CO)n(C)c1=O (stereo not given),3254,1.4,2.0,1.0,-55.6,0.6,3.6
CCOn1c(SC(C)C)nc2ccccc2c1=O,10093,3.3,9.0,17.9,-14.9,13.7,2.0
CCOc1ccc(Cn2nnc(C(=O)Nc3cc(OC)cc(OC)c3)c2N)cc1,6423,2.0,·,·,10.1,2.0,-7.3
C#CCOCCOCCOCCNc1nc(N2CCN(C(=O)C(Cc3ccc(O)cc3)n3cc(C(N)CC(C)C)nn3)CC2)nc(N2CCN(C(=O)C(C(C)CC)n3cc(C(N)CO)nn3)CC2)n1 (stereo not given),·,1.6,9.6,-4.1,·,-3.3,·
Cn1nc(-c2ccc(N3CCOCC3)c(NS(=O)(=O)c3ccc(Cl)cc3)c2)c2ccccc2c1=O,2955,-16.6,7.9,8.0,-24.5,-5.3,·
Cc1ccc(NC(=O)C(C)OC(=O)CSc2ccccc2)cc1 (stereo not given),2990,-1.8,0.9,-0.3,-6.1,-4.7,·
CCN(CC)c1ccc(NC(=O)CSc2nnc(N)s2)cc1C,6204,2.1,·,·,-9.6,2.4,·
COC(C(=O)Nc1ccc(Cl)cc1C)c1ccccc1 (stereo not given),2165,2.3,10.8,7.5,-13.1,4.2,4.1
O=C1Nc2ccc(Br)cc2/C1=C/C1CC=CCC1 (stereo not given),4847,-10.0,-8.2,-3.1,-2.6,25.8,-6.6

# New compounds follow:
SMILES,Bead autofluor,RN4220 kill,Mtb hypoxia rep,Mtb hypoxia rep growth,PrP UTR inh,Sa ugtP lethal,BJeLR viability
O=C(NC1CCCC1)C(c1ccncc1)N(C(=O)c1ccco1)c1ccc(Cl)cc1 (stereo not given),5716,2.0,4.1,-2.8,-1.7,4.1,12.6
COc1cccc2cc(-c3cc(=O)oc4cc(C)c(O)cc34)oc12,4052,-2.5,-0.9,-2.7,0.2,-4.4,2.4
O=C(Nc1ccc(Cl)cc1)c1cc(S(=O)(=O)N2CCOCC2)cs1,4216,1.8,-7.0,3.6,-3.5,3.8,6.9
CCOC(=O)c1c(C(F)(F)F)cc(-c2ccc(F)cc2)nc1C,2385,0.6,3.1,4.5,-10.9,94.0*,16.3
O=C(/C=C/c1cn(-c2ccccc2)nc1-c1ccccc1)Nc1ccc(C(=O)O)cc1,4321,6.7,7.4,-7.9,-9.7,15.5,-0.1
CN(C)c1cccc2c(S(=O)(=O)N3CCCC3)cccc12,4748,2.1,18.7,2.1,-12.2,9.4,-9.3
Cc1ccc2cc3cc(C(=O)NCCN4CCOCC4)oc3nc2c1,3441,2.2,12.9,9.3,-3.0,9.5,-18.1
CN1C(=O)/C(=C/c2ccccc2Cl)Sc2ccc(C(=O)N3CCCC3)cc21,4441,5.1,2.7,-7.4,-7.2,-10.5,6.5
CCCCNC(=O)NC1C(NC(=O)NCCCC)N(C)C(=O)N1C (stereo not given),2466,1.4,·,·,-6.7,-0.1,-2.4
O=C(COc1ccccc1)N1CCCC1,4421,2.3,18.9,8.5,-30.4,-1.3,-1.8
O=C1c2cccc3cc([N+](=O)[O-])cc(c23)C(=O)N1c1ccccc1O,4661,-1.9,-4.1,8.9,-16.7,10.3,0.3
Cc1nc(-c2ccc(Cl)cc2)sc1C1(C)CC(c2cccnc2)=NO1 (stereo not given),4006,0.1,7.7,3.1,-18.6,5.9,0.6
O=C1CC(c2nc3ccccc3[nH]2)CN1c1ccccc1F (stereo not given),4401,16.9,-7.6,14.6,1.6,5.8,11.1
CC1CCCC(C)N1C(=O)CSc1nnc(COc2ccccc2)n1-c1ccccc1 (stereo not given),12751,4.3,1.3,4.8,-24.0,1.4,-2.5
COc1ccccc1N(/N=C1\Sc2ccccc2C1=O)C(C)=O,6305,·,·,·,23.0,·,12.2
CCOc1ccc(Nc2nc(N)c([N+](=O)[O-])c(N3CCN(CC)CC3)n2)cc1,3996,0.5,-13.1,3.2,-28.1,-1.3,11.2
C/C(=N\NC(=O)c1ccc(F)cc1)c1cccc(NC(=O)c2ccco2)c1,?,·,·,·,-19.1,·,-9.0
CC1Cc2ccccc2N1C(=S)NC(=O)C1(C)CC1(Cl)Cl (stereo not given),3193,5.6,13.4,14.7,-16.4,6.5,-1.8
Cc1ccc(S(=O)(=O)c2cc(OC(=O)c3ccco3)ccc2OC(=O)c2ccco2)cc1,2067,2.7,7.6,1.9,-4.8,11.8,2.9
NC(=S)NN=Cc1ccccc1O,·,6.2,1.3,3.9,·,6.9,·
COc1ccccc1NS(=O)(=O)c1ccc(O)c(C(=O)OCC(=O)Nc2ccccc2F)c1,4105,5.1,18.1,3.0,-16.6,-1.9,-2.2
COc1cccc(/C=N/NC(=O)c2cccc3ccccc23)c1OC,5658,·,·,·,-24.7,·,0.1
CCc1ccc(N(CC(=O)NCCc2ccccc2)C(=O)CCC(=O)Nc2ccccn2)cc1,4133,-1.2,6.8,-2.8,-1.9,-1.5,-4.3
CC(C)CCN1CCN(Cc2cnc(-c3ccccc3)s2)CC1CCO (stereo not given),3902,1.5,-8.1,10.3,-20.6,1.4,6.0
CN1CCN(c2cc(N3CCNCC3)ccc2[N+](=O)[O-])CC1,2270,3.8,11.3,0.6,-7.4,2.1,8.6
CCCN(CCC)C(=O)c1cn(CC)c2ccc(S(=O)(=O)N3CCCCC3)cc2c1=O,4433,4.1,7.1,1.0,-7.2,14.4,4.0
COc1cc(OC)c(C=NNC(=O)c2ccc(NC(C)=O)cc2)cc1Br,·,2.0,-2.6,2.2,·,8.8,·

# Complete entries as entered above. Order of values: Bead autofluor | RN4220 kill | Mtb hypoxia rep | Mtb hypoxia rep growth | PrP UTR inh | Sa ugtP lethal | BJeLR viability
# Listed for CCC(=O)NC(Nc1ccccn1)(C(=O)OC)C(F)(F)F (stereo not given) = 2158 | 8.1 | 3.2 | 10.1 | -3.6 | 11.6 | 12.4
# Listed for COCCN(Cc1ccco1)C(=O)C1CCCN(c2ncnc3c2nc2n3CCCCC2)C1 (stereo not given) = 6276 | 3.8 | 1.0 | 3.4 | -11.2 | 4.0 | 3.1
# Listed for Cc1ccc(-c2sc(C(=O)NN)c(C)c2C#N)cc1 = 6206 | 14.1 | -11.3 | 0.7 | 16.0 | -7.8 | 2.2
# Listed for O=c1cc(-c2ccccc2)n(S(=O)(=O)c2ccc3ccccc3c2)o1 = · | -1.4 | 9.4 | 7.6 | -10.7 | 7.4 | -1.2
# Listed for O=C(COc1ccccc1)N1CCCC1 = 4421 | 2.3 | 18.9 | 8.5 | -30.4 | -1.3 | -1.8
